Assay outcomes (PubChem)
Rce1 inh = blocks yeast Ras-converting enzyme; yeast membranes, quenched prenylated peptide cleavage fluorescence; calls only; Q03530; 290,000 compounds, 0.27% hits;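 active = fall in fluorescence gain of 50% or more versus controls, with final raw signal at or below 3038400; inconclusive = same 50% fall but final raw signal above 3038400; inactive = fall in fluorescence gain under 50%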;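 also: plate controls were neutral control wells for no effect and wells lacking membranes for full effect; tested at 10 µM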
Target sequence (Q03530 whole entry, looked up): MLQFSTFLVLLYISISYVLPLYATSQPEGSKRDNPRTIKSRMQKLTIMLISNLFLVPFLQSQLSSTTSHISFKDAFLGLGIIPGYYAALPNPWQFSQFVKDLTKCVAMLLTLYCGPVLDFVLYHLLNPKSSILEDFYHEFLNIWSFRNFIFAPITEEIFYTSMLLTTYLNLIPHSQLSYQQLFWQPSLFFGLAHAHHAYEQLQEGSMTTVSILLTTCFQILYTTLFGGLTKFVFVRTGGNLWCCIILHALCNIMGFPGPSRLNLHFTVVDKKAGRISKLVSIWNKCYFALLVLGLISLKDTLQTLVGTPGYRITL
Yeast UUG start = modulators of start codon recognition fidelity in yeast; S. cerevisiae UUG-firefly luciferase reporter, luminescence/redox ratio; activity score, % at 18.7 µM; 350,000 compounds, 0.13% hits;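 active = replicate mean at a twofold rise or more, about +100% in these data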;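 also: firefly luciferase made from a UUG start codon reports start codon fidelity; reporter light over untreated wells divided by growth signal over untreated wells; some hits fall short of that in this replicate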
PABP FP inh = PABP-poly(A) binding inhibition | P11940 | PABP-poly(A) RNA binding, fluorescence polarization | inhibition, % at 35 µM | 290,000 compounds, 1% hits;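 active = 50% or more with normal probe brightness, or confirmed in later tests; inconclusive = above 50% with abnormal brightness, or retests that disagree; inactive = below 50% or failed in later tests; about a fifth of its hits are not listed in these tables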;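 also: calls also rest on retests at 20 µM and on dose response follow-up; controls were probe without protein and protein plus probe with vehicle; some compounds called inactive have numbers as strong as hits; many hits fall short of the cut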
eIF4H inh = inhibitors of RNA binding by human eIF4H; Q15056; eIF4H fluorescence polarization binding assay; inhibition, % at 35 µM; 290,000 compounds, 0.94% hits; AID 2012;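 active = 50% or more with normal probe brightness, or confirmed in later tests; inconclusive = above 50% with abnormal brightness, or retests that disagree; inactive = below 50% or failed in later tests; about a fifth of its hits are not listed in these tables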;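 also: calls also rest on retests at 20 µM and on dose response follow-up; 0% = protein and probe with vehicle and 100% = probe without protein; strong numbers were not always called active; many hits fall short of the cut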
CSC inhib = cancer stem cell inhibition; inhibition, % at 7.5 µM; AID 2717; 300,000 compounds, 1.1% hits; cancer stem cell-like cells viability, luminescence;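 active = mean at 75% or more and at least half the replicates too; inconclusive = mean and replicates disagree; tested in HMLE shEcad cells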;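 also: 0% = median of negative and 100% = median of positive control wells; the first replicate is given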
HIV Env fusion = inhibitors of HIV Env-mediated cell fusion | HeLa-JRFL Env/CEM21 cell fusion, luciferase | inhibition, % at 12.3 µM | 360,000 compounds, 1.1% hits;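 active = mean replicate inhibition score of at least 50 and every replicate individually at or above 50; inconclusive = only one of the two criteria met; inactive = mean below 50 and not all replicates reaching 50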;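 also: 0% = plate neutral controls and 100% = maraviroc near 300 nM; one replicate is shown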
MT1-MMP act inh = MT1-MMP (human) activation inhibition. GFP/RFP ratio change, % at 20 µM. 360,000 compounds, 0.061% hits. P50281. HT1080 RFP-PRO-GFP cells, GFP/RFP ratio fluorescence, overnight; percent of plate control window, DMSO zero;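 active = GFP/RFP ratio change of at least 30% with cell ATP level not reduced by more than half and red fluorescence within 50% of control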; also: strong numbers were not always called active
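Material: RFP-PRO-GFP reporter HT1080 cells. Dosing: single-point 20 µM compound, 1% DMSO. Controls: DMSO and RFP-L50D-GFP cell wells. Timing: cells overnight before dosing, compound overnight, 37 °C, 5% CO2. Measure: GFP/RFP fluorescence ratio.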
eIF4H inh retest = also measured in eIF4H inh; calls as there; inhibition, %; compound at 20 µM; confirmation average;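 mean of two retest wells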
PABP FP inh retest = also measured in PABP FP inh; calls as there; inhibition, %; compound at 20 µM; confirmation repeats;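 mean of two retest wells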
MT1-MMP act inh RFP = recorded beside MT1-MMP act inh, whose call it bears; RFP signal change, %; measured here: RFP expression control read;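 0 = vehicle wells; hits needed this value within 50% of zero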
* marks the source's active call; other numbers are inactive results; i = inactive; ? = inconclusive; · = no result given.

SMILES	Rce1 inh	Yeast UUG start	PABP FP inh	eIF4H inh	CSC inhib	HIV Env fusion	MT1-MMP act inh	MT1-MMP act inh RFP	others
Cc1cc(Nc2ccc(Br)c(C)c2)n2nc(C)nc2n1	i	-12	16	7	-11	-6	0	2
COCCn1c(SCC(N)=O)nc2c(c1=O)SC(C)C2 (stereo not given)	i	0	1	3	-2	8	2	7
COc1cccc(C2CC(c3ccccc3Cl)Nc3nc(N)nn32)c1 (stereo not given)	i	-21	-7	3	-10	36	4	1
Cc1nn(C)cc1C1C2=C(CC(C)(C)CC2=O)OC2=C1C(=O)CC(C)(C)C2	i	-1	-3	-1	-12	·	-2	3
Cc1[nH]c2ccccc2c1C(=O)COC(=O)Cn1cnc2ccccc21	i	·	3	-10	-5	-7	-1	3
O=C(CSc1nc2nn(-c3ccccc3)c(=O)c-2c2n1CCCCC2)c1ccc(OC(F)F)cc1	·	-4	·	·	-2	·	5	-6
COC(=O)c1ccc(NC(=S)N2CCN(Cc3ccccc3OC)CC2)cc1	i	·	-3	-12	3	-6	0	0
CCCCC(=O)OCC(=O)Nc1ccc(SC(F)F)cc1	i	-7	1	-6	30	2	1	3
Cc1ccccc1OCC(=O)Nc1ccc2c(c1)n(C)c(=O)n2C	i	-7	8	-5	-6	-17	9	-2
CC(C)NC(=O)C1(C)CCN1C/C=C/c1ccccc1 (stereo not given)	·	-18	·	·	·	-22	2	6
O=C(CCS(=O)(=O)c1ccc(F)cc1)N1CCOCC1	i	-3	-3	-6	-7	-21	-2	1
Cc1cc(C)cc(NC(=O)CSc2nnc(C3CC3)n2CC2CCCO2)c1 (stereo not given)	i	3	4	-10	-2	-5	1	2
O=C(Nc1ccccn1)c1sc2cc([N+](=O)[O-])ccc2c1Cl	i	-1	6	-10	-5	-21	2	6
OC(COCc1cccs1)CN1CCN(c2ccccn2)CC1 (stereo not given)	i	-35	0	4	3	·	1	5
CC(C)Cc1cc(C(=O)N2N=C(C(F)F)CC2(O)C(F)F)c2ccccc2n1 (stereo not given)	i	-6	-10	5	7	26	3	3
Cc1cc(C)[n+](-c2ccc(F)cc2)c2[nH]c(=O)[nH]c(=O)c12	?	-17	-9	2	-3	·	-2	1
O=S1(=O)Cc2cc3ccccc3cc2C1	i	·	-2	-5	4	-19	0	3
C=C(C)C1Cc2c(C)nn(-c3cccc4cccnc34)c2C1 (stereo not given)	i	-13	5	4	6	4	-2	-2
CC(C)[C@H](NC(=O)N1CCn2c1nc1ccccc12)C(=O)N1CCCCC1	i	·	8	-2	8	2	4	0
CCCc1cc(=O)n2[nH]c(NCc3ccccc3Cl)nc2n1	i	-26	5	-13	-7	-31	-1	1

Continued; it opens with the 6 that closed the last part.
SMILES	Rce1 inh	Yeast UUG start	PABP FP inh	eIF4H inh	CSC inhib	HIV Env fusion	MT1-MMP act inh	MT1-MMP act inh RFP	others
CC(C)Cc1cc(C(=O)N2N=C(C(F)F)CC2(O)C(F)F)c2ccccc2n1 (stereo not given)	i	-6	-10	5	7	26	3	3
Cc1cc(C)[n+](-c2ccc(F)cc2)c2[nH]c(=O)[nH]c(=O)c12	?	-17	-9	2	-3	·	-2	1
O=S1(=O)Cc2cc3ccccc3cc2C1	i	·	-2	-5	4	-19	0	3
C=C(C)C1Cc2c(C)nn(-c3cccc4cccnc34)c2C1 (stereo not given)	i	-13	5	4	6	4	-2	-2
CC(C)[C@H](NC(=O)N1CCn2c1nc1ccccc12)C(=O)N1CCCCC1	i	·	8	-2	8	2	4	0
CCCc1cc(=O)n2[nH]c(NCc3ccccc3Cl)nc2n1	i	-26	5	-13	-7	-31	-1	1
COc1ccc(NC(=O)C2CC(c3ccccc3Cl)=NO2)cc1 (stereo not given)	i	13	2	4	-2	-9	3	-1
O=C(O)c1c(-c2ccccc2)nnc2ccccc12	i	-6	7	0	-4	4	-1	4
NC(=O)[C@@H]1CCCNc2c(I)cc([N+](=O)[O-])cc2C(=O)N[C@@H](Cc2ccccc2)C(=O)N[C@@H](Cc2cnc[nH]2)C(=O)N1	i	41	6	-4	-8	-2	-2	0
COc1ccc(NC(C)=O)cc1NC(=O)CSc1nnc(-c2ccccc2)n1N	i	-3	3	2	-14	·	8	6
COCc1cc(C)nc2sc(C(=O)Nc3ccccc3Br)c(N)c12	·	-4	5	1	4	-7	1	-1
O=C(C1CCCO1)N1CCN(S(=O)(=O)c2cc(F)ccc2F)CC1 (stereo not given)	i	-16	-7	47	-22	20	-5	-3
CCOc1ccc(NC(=O)c2ccc3c(=O)n4c(nc3c2)CCCCC4)cc1	i	9	·	·	14	15	2	-14
COc1cc(/C=N/NC(=O)CC2(C)OCCO2)cc(Br)c1O	·	·	-26	1	-6	-63	1	6
CNC(=O)c1ccccc1NC(=O)C1CC(=O)N(c2ccc(OC)cc2)C1 (stereo not given)	i	-8	2	-3	-1	-12	4	4
O=C(c1ccco1)N1CCN(Cc2cc(=O)c(OCc3ccc(F)cc3)co2)CC1	i	8	·	·	0	-2	7	4
Cc1ccccc1-n1nc2c(c1NC(=O)c1ccc3c(c1)OCO3)CS(=O)(=O)C2	i	-1	0	-6	-6	-7	-4	3
Cc1ccc(-n2nnnc2-c2cnc3ccc(Cl)cc3c2-c2ccccc2)cc1	i	-14	-5	10	58	-37	-16	-26
CC(C)n1nnnc1SCC(=O)N1N=C(c2cccs2)CC1c1cccs1 (stereo not given)	·	-4	·	·	-3	-25	1	4
c1coc(-c2nnc3sc(Cc4cccs4)nn23)c1	i	-26	64*	77*	12	-5	-4	3
CNS(=O)(=O)c1cccc(C(=O)NCC(c2ccco2)N(C)C)c1 (stereo not given)	i	-7	7	2	0	-2	-2	4
CCOP(=O)(OCC)C(NC(=O)Nc1ccc(Cl)c(Cl)c1)c1ccccc1 (stereo not given)	i	·	17	2	12	-8	-2	-6
CC(C)CCOP(=O)(c1ccc(N(C)C)cc1)C(O)c1ccccc1F (stereo not given)	i	-3	2	-10	3	18	-2	-5
S=C(NCc1ccc(Cl)cc1)N1CCN(c2ccccn2)CC1	i	·	-8	2	-7	9	1	2
Cc1cc(OCC(=O)OCC(=O)N2CC(C)CC(C)C2)ccc1Cl (stereo not given)	·	-6	·	·	-17	·	-2	4
O=C(COC(=O)c1cccnc1Cl)Nc1ccccc1OC(F)F	i	·	2	10	18	-14	-1	2
CCN1CCN(C(=O)c2cc3c(OC)c(OC)c(OC)cc3[nH]2)CC1	i	-8	-8	0	-4	-8	-1	1
Nc1cc(C(=O)O)ccc1Sc1ccccc1C(=O)O	i	·	-6	12	0	0	0	2
CC(=O)c1sc2ccccc2c1OC(=O)c1ccco1	i	-10	3	2	1	·	5	6
Cc1cc(NC(=O)CCCS(=O)(=O)c2nc(-c3cccs3)cc(C(F)(F)F)n2)no1	i	-15	-1	-9	-11	-5	-6	-13
Cc1c(C(=O)OCc2ccc(F)cc2)sc2nc3n(c(=O)c12)CCC3	i	·	·	·	20	·	2	-3
Cc1ccc2ccccc2c1NC(=O)Cn1nnc(-c2cccnc2)n1	i	·	3	-1	-11	13	-4	1
COC(=O)c1cc(-c2cccs2)nn1-c1ccccc1	·	·	35	-3	9	10	-4	-5
COc1cc(/C=C/C(=O)OCC(=O)NC2CCS(=O)(=O)C2)ccc1OC(F)F (stereo not given)	·	-4	·	·	12	·	3	4
CCc1ccc(CNC(=O)Cc2ccc(NC(=O)C3=C(C)OCCS3)cc2)cc1	i	-30	8	26	61	i	9	-10
O=C1CN(C(=O)N[C@@H](Cc2ccccc2)C(=O)N[C@H](Cc2ccccc2)C(=O)O)c2ccccc2N1	i	-6	-10	-5	9	·	1	1
COc1ccc(/C=C/C(=O)Nc2cccc(F)c2)cc1S(=O)(=O)N1CCOCC1	i	9	-7	-4	3	13	-5	-25
CCOC(=O)c1c(C)nn(-c2ccc(NC(=O)/C=C/C(=O)O)cc2)c1C	i	-7	0	-1	-18	30	2	4
COc1ccc(C2(CNC(=O)c3ccco3)CCOCC2)cc1	i	-11	-3	-8	-13	3	0	-2
Cc1ccc(NC(=O)COC(=O)c2cccnc2Cl)cc1S(=O)(=O)N1CCOCC1	·	-13	·	·	-29	4	8	3
N=C1C(c2ccccc2)=C(O)CN1c1cccc(O)c1	i	·	10	-3	0	-6	-1	0
O=C(c1cc(-c2ccccc2)nn1CC1CC(c2cccnc2)=NO1)N1CCOCC1 (stereo not given)	i	-20	·	·	6	-3	-7	0
COC(=O)CCc1sc(NC2CCCCC2)nc1-c1ccc(OC)cc1	i	·	-4	-8	·	2	-11	-3
CCC1CCCCN1C(=O)/C=C/c1ccc2c(c1)OCO2 (stereo not given)	i	-18	-14	1	-8	1	-2	2
CC(C)C(=O)NC(NCC1CCCO1)C(Cl)(Cl)Cl (stereo not given)	i	-5	-1	-5	-27	·	4	2
CN(C1CCCCC1)S(=O)(=O)c1ccc(Cl)c(C(=O)O)c1	i	-9	6	-7	-3	3	-5	2
CCNc1nc(SCCOc2ccc(Br)cc2)nc(N(C)C)n1	i	·	12	0	31	24	0	-4
O=C(NCCNC(=O)c1ccccn1)c1cccc(F)c1	i	1	2	-4	·	3	-2	2
CC(C)(C)n1ncc2c(=O)n(CC(=O)NC3CCCCC3)cnc21	i	-7	1	4	13	·	7	2
C/C(=N/Nc1ccc([N+](=O)[O-])cc1)c1c[nH]c2ccccc12	i	-19	-16	-10	51	-34	-62	-5
COc1ccc(N2CC(C(=O)Nc3ccc(S(=O)(=O)N4CCCC4)cc3)CC2=O)cc1 (stereo not given)	i	10	-6	0	7	-17	-1	1
O=C(CCC(=O)N1CCN(c2ccccc2F)CC1)c1ccc(Cl)s1	·	-7	·	·	-14	·	-6	4
Cc1ccc(S(=O)(=O)Nc2nc3ccc(N)cc3s2)cc1	i	-12	6	-6	-4	5	3	2
CC(C)N(Cc1ccccc1)C(=O)Cn1c(=O)cnc2ccccc21	i	-17	5	-7	-3	-11	-2	-2
O=C1CN(S(=O)(=O)c2ccccc2Cl)CCN1	·	-9	·	·	·	-16	-6	6
CCc1nnc(NS(=O)(=O)c2ccc(N3C(=O)C4CC=C(Cl)CC4C3=O)cc2)s1 (stereo not given)	i	0	14	-8	-5	-21	3	2
OC(COc1ccc(Cl)cc1)CN1CCN(c2ccccn2)CC1 (stereo not given)	i	·	·	·	1	2	2	0
CCOC(=O)CC(NC(=O)c1cc2cccc(OC)c2oc1=O)c1cccc([N+](=O)[O-])c1 (stereo not given)	i	-4	-7	-4	0	-3	5	3
Cc1noc(/C=C/N(C)C)c1S(=O)(=O)N1CCCC(C(=O)NCc2cccs2)C1 (stereo not given)	i	2	-6	0	4	17	-10	-2
O=C(NC1(C(F)(F)F)N=C(c2ccccc2)NC1=O)c1ccccc1F (stereo not given)	i	0	-16	-3	-16	1	1	3
NC(=O)C1CCN(C(=S)NCc2ccc3c(c2)OCO3)CC1	i	-18	?	?	-4	-12	4	10
CC(=O)N(c1cccc(C)c1)S(=O)(=O)c1ccc(Cl)cc1	i	-10	-3	6	-13	-15	0	1
O=S1(=O)N=C(N/N=C/c2cccs2)c2ccccc21	i	-28	72	-2	-5	-5	-7	0	eIF4H inh retest=-5;PABP FP inh retest=8
O=C(Nc1cccnc1)c1ccc(NC(=O)c2ccco2)cc1	i	-13	0	0	5	-1	-5	1

This is a random part of the collection; any-hit rate near 2.9%.
